# Bioassay records deposited in PubChem by several laboratories.
# Mtb hypoxia inh – PubChem AID 1159583 | 300,000 tested, 0.1% active | fluorescence inhibition, % (no concentration beside the values) | M. tuberculosis hypoxia-regulated fluorescent reporter, fluorescence;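 active = 35 to 45% if threefold the growth effect, above 45% if 1.5-fold the growth effect; inactive = the rest, general growth blockers included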;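 also: wells of about 50 µL received 100 nL stock; 0% = vehicle wells and 100% = reference inhibitor wells; whole bacteria with a GFP reporter of the hypoxia response; strong numbers were not always called active; many hits fall short of the cut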
# Autofluor counter – compound fluorescence in toxin protease inhibitor counterscreen; compound autofluorescence counterscreen, microsphere flow cytometry; active compounds read high; fluorescence intensity (no concentration beside the values); 360,000 tested, 3.1% active; AID 624483;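 active = at least 3 SD above the mean of all compounds, about 16000 in these data; inconclusive = too few beads counted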;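 also: 100 nL of 1 mM stock went into each well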
# Sa ugtP lethal – growth inhibition of ugtP-null S. aureus, primary screen, RN4220 ugtP deletion, OD600 | 16 h; some inactives read as strong as hits | growth inhibition, % (test concentration not listed) | 330,000 tested, 0.54% active | AID 1259309, 2017;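 active = z-score under -3 and OD600 up to 0.15 on both plates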;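 also: plate controls were untreated wells for no effect and antibiotic for full effect; wells of about 80 µL received 100 nL stock; the first replicate is given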
# RN4220 kill – growth inhibition of S. aureus RN4220, primary screen, OD600; 16 h; inhibition, % (test concentration not listed); 330,000 tested, 0.33% active; AID 1259311, 2017;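 active = z-score of -3 or lower and OD600 up to 0.18 on both plates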;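 also: plate controls were untreated cells for no effect and reference antibiotic for full effect; stock transfer was 100 nL into about 80 µL; one replicate is shown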
# BJeLR viability – MLPCN primary cell-based screen for lethality selective to Ras in HRASV12 cells. BJeLR (HRASV12) viability, CellTiter-Glo ATP luminescence, 48 h; reference of the scale not given here. inhibition, % (test concentration not listed). 300,000 tested, 0.17% active;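 active = replicate mean above 50%; inconclusive = above 50% but judged a plate artefact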;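 also: 50 nL library stock added to about 25 µL; numbers are from one replicate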
# PrP UTR inh – inhibition of PrP 5' UTR reporter expression. 340,000 tested, 0.35% active. inhibition, % (no concentration beside the values). cell-based PrP 5' UTR mRNA reporter, plate reader;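 active = every replicate at 50% or more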;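 also: 0 = median of the neutral control wells; tested in H4 reporter cells; numbers are from one replicate; inactives centre near -14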
# Mtb hypoxia inh growth – second read-out of Mtb hypoxia inh, no call of its own (marks repeat the call); growth inhibition, %; measured here: M. tuberculosis growth (absorbance);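 0% = vehicle and 100% = reference antibiotic; read after six days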
# Starred values were filed as active, the others as inactive; u = inconclusive; x = not tested or not shown; & = joins results of further samples.
SMILES,Mtb hypoxia inh,Mtb hypoxia inh growth,Autofluor counter,Sa ugtP lethal,RN4220 kill,BJeLR viability,PrP UTR inh
Cc1ccc(/C=N/NC(=O)c2ccc(NC(=O)c3ccccc3Cl)cc2)o1,x,x,3873,x,x,-4,-9
COc1cccc(OC)c1C(=O)OCC(=O)NCc1ccco1,6,2,9889,2,1.5,x,-11
O=C(CNC(=O)C1COc2ccccc2O1)N/N=C\c1cccc(O)c1 (stereo not drawn),x,x,1993,x,x,-20,3
Cc1ccc(S(=O)(=O)N2CCC(C(=O)OCC(=O)N3CCc4ccccc43)CC2)cc1,7,11,5421,6,2.2,3,-9
Cn1c(=O)c2c(SCc3c(F)cccc3Cl)nc(CC(C)(C)C)nc2n(C)c1=O,5,10,5739,53,-13,-2,-21
CCC(C)C(C)=NNC(=O)c1ccccc1OCCOc1ccccc1 (stereo not drawn),4,-1,x,-15,1.4,x,x
Cc1ccccc1OCC(=O)N(Cc1ccco1)c1c(N)n(Cc2ccccc2)c(=O)[nH]c1=O,0,-4,5518,1,0.9,x,-8
CC1(C)Cc2ccccc2-c2nc3ccccc3c(=O)n21,5,7,2838,4,7.5,7,-5
O=S(=O)(Nc1nc(-c2sccc2Cl)cs1)c1cc(Cl)ccc1Cl,9,3,3267,70,48,-1,-16
COc1ccc(C#Cc2ccc3c(c2)c(=O)c2ccccc2n3C)cc1,11,2,3714,-10,-4.8,-2,-27
CC(=O)Nc1ccc(OCC(=O)NCc2ccc3c(c2)OCO3)cc1,-5,5,4117,7,12,2,2
O=C(CN1CCN(c2ccc(F)cc2)CC1)Nc1ccc(F)c(F)c1,x,x,1927,1,-1.1,-10,-4
CC(=O)Nc1ccc(Br)cc1C(=O)C(=O)O,-3,4,1984,7,2.2,14,0
COC(=O)C=c1sc(=C(C#N)C(=O)N2CCOCC2)n(-c2ccccc2)c1=O,20,16,x,7,-1.3,x,x
Nc1ccc2nc3c(c(Cl)c2c1)CCCC3,x,x,3987,3,1.9,13,-9
CC1CCc2sc(C(=O)N=Nc3c(O)[nH]c4ccccc34)cc2C1 (stereo not drawn),-2,0,x,-6,4.6,6,x
CCN(c1ccccc1)S(=O)(=O)c1ccc(OC)c(NS(=O)(=O)c2cccs2)c1,8,6,4842,4,12,-2,-9
CC1(C)CC(=O)C=C(NC2CC(C)(C)NC(C)(C)C2)C1,13,4,11506,8,3.7,-14,-12
CC1=C(C(=O)OCC2CCCO2)C(c2coc3ccccc3c2=O)C2=C(CC(C)(C)CC2=O)N1 (stereo not drawn),1,5,4397,8,6.4,1,-14
C=CCN(CC=C)C(=O)c1cccc(OC2CCN(S(=O)(=O)N(C)C)CC2)c1,-1,8,4179,5,5.4,-16,-16
Cc1ccc(S(=O)(=O)CC(=O)Nc2ccc(F)c(F)c2F)cc1,1,6,x,6,7.2,-2,-15
Cc1ccccc1OCC(=O)Nc1ccccc1NC(=O)c1ccco1,11,-4,3884,-6,3.9,-2,-13
O=C(CNC(=O)c1ccccc1Cl)N/N=C/C=C/c1ccccc1,x,x,2249,x,x,5,-30
Cc1ccccc1CNC(=O)C(=O)Nc1nccs1,3,6,4166,-1,1.6,-4,-24
O=C(NCCCCc1ccccc1)c1ccccc1Cl,17,10,4133,6,7.3,-3,-23
CC(=O)N1C(=O)NC2=C(C(=O)CCC2)C1c1cccc([N+](=O)[O-])c1 (stereo not drawn),7,-1,2989,9,3.3,-8,-28
BrCCOCCOc1ccc2ccccc2c1,5,2,2327,10,13,-11,-12
O=C(CC1C(=O)NCCN1C(=O)Nc1ccccc1)Nc1ccc2c(c1)OCO2 (stereo not drawn),12,2,2326,-2,6.1,-5,-21
Cn1c(=O)c2[nH]c(CCCCc3nc4ccccc4[nH]3)nc2n(C)c1=O,2,17,3537,0,3.4,x,-10
COc1ccc2c(c1)CC/C(=C\c1ccc(OC)c(Cn3nc(C)cc3C)c1)C2=O,5,3,6460,-1,0.1,-2,1
O=C(NC1CCCC1)C1CCC(=O)N1C1CCCC1 (stereo not drawn),0,4,7614,8,9.8,-2,-22
O=C(Nc1cc(C(F)(F)F)ccc1N1CCOCC1)c1cccnc1Cl,-1,13,2436,-5,-13,8,-5
O=C(NCC1CC1)c1ccc(Nc2nc3ccc(Br)cc3[nH]2)cc1,-4,16,4026,-17,-4.2,2,-4
CC1CCCCN1C(=O)c1cccc(NC(=O)c2ccccc2)c1 (stereo not drawn),-10,-1,2921,-4,-0.8,12,-18
COc1cccc(NC(=O)c2nn(C)c(C(=O)Nc3cccc(OC)c3)c2[N+](=O)[O-])c1,4,3,3992,6,0.1,-3,-44
COc1ccc(CNS(=O)(=O)c2cc3c(cc2C)N(C)CCO3)cc1,5,0,6827,6,8.3,-2,-22
COc1ccccc1/C=N/NC(=O)c1nnn(-c2nonc2N)c1CSC1=NCCS1,x,x,1790,x,x,-20,-7
O=C(COC(=O)c1ccc(O)cc1)Nc1cccc(S(=O)(=O)N2CCCCC2)c1,3,-6,4674,3,2.6,1,-27
COCc1nnc(NC(=O)c2ccc(S(=O)(=O)N(C)Cc3ccccc3)cc2)o1,7,-2,5337,0,15,-14,-7
CCSc1nnc(NC(=O)c2cnccn2)s1,6,6,x,-1,5.1,-12,x
COC(=O)CSc1nc2ccc(N)cc2s1,-1,9,5175,7,2.0,-9,-4
Cc1ccc(C(=O)NCC(=O)OCC(=O)NC2CCCC(C)C2C)s1 (stereo not drawn),12,18,5159,5,5.0,4,-11
Cc1cccnc1-n1c(-c2ccco2)nc2ccccc2c1=O,x,x,4349,0,0.7,-9,-20
CCN(c1ccccc1)S(=O)(=O)c1cccc(C(=O)NCC(c2ccc(F)cc2)N2CCOCC2)c1 (stereo not drawn),-6,0,5015,10,5.7,x,1
O=[N+]([O-])c1cc(S(=O)(=O)N2CCOCC2)ccc1NS(=O)(=O)c1ccccc1,10,8,2829,5,7.5,x,-24
CC1(C)CC2(CCO1)CNC(=O)O2 (stereo not drawn),-19,-5,4116,1,-0.9,7,2
CC1(c2nnc(-c3ccc(F)cc3)o2)CC(c2cccnc2)=NO1 (stereo not drawn),12,18,4192,4,2.9,8,-7
O=C(Nc1ccc(C(=O)Nc2ccccc2Cl)cc1)c1cccnc1,9,19,u,7,0.1,x,-16

# Record cards (already shown). Order of screens: Mtb hypoxia inh, Mtb hypoxia inh growth, Autofluor counter, Sa ugtP lethal, RN4220 kill, BJeLR viability, PrP UTR inh
# CC1CCCCN1C(=O)c1cccc(NC(=O)c2ccccc2)c1 (stereo not drawn) is listed with -10, -1, 2921, -4, -0.8, 12, -18
# CCC(C)C(C)=NNC(=O)c1ccccc1OCCOc1ccccc1 (stereo not drawn) is listed with 4, -1, x, -15, 1.4, x, x

# New compounds follow:
SMILES,Mtb hypoxia inh,Mtb hypoxia inh growth,Autofluor counter,Sa ugtP lethal,RN4220 kill,BJeLR viability,PrP UTR inh
O=C(NNC(=S)Nc1ccccc1Cl)c1ccccc1,x,x,5616,1,2.8,4,-82
O=C(CCCCn1c(=O)[nH]c2ccsc2c1=O)NCCc1ccccc1,14,8,5205,3,2.9,9,-33
CCOC(=O)N1CCC(Nc2nc(OC)nc(OC)n2)CC1,6,17,22300*,1,1.2,-3,17
Cn1cc(CN2CCC(C(=O)Nc3cccc(-c4cscn4)c3)CC2)cn1,-1,0,6223,2,3.5,-1,-14
CCOC1OC(C(=O)Nc2ccccc2)=CC(C2CC2)C1CCCO (stereo not drawn),7&-1,4&6,x,-10&-11,7.3&-2.1,x,x
CN(C(=O)COC(=O)c1ccc2c(c1)OCO2)C1CCCCC1,-5,7,3877,-3,0.7,x,-30
CCN(CC(=O)Nc1c(F)cccc1F)C(=O)/C=C/c1ccc(Br)s1,11,0,u,4,5.9,1,2
OC(CNCc1ccccc1)Cn1ccc2ccccc21 (stereo not drawn),4,5,3758,-19,-3.8,-4,-10
CCN(CC(=O)Nc1ccccc1C(F)(F)F)C(=O)c1cc(-c2ccccc2)nn1-c1ccccc1,7,4,5563,23,-3.4,1,-9
Cc1ccccc1C(=O)N1CCN(c2ccc(NC(=O)c3ccc4c(c3)OCCO4)cc2)CC1,-5,2,6964,8,1.8,17,16
O=C1c2ccccc2C(=O)N1CCCc1c[nH]c2ccccc12,-4,3,2551,2,7.0,0,-44
CCOc1ccc(C(=O)NC2CCN(C(=O)Nc3ccc(F)cc3)CC2)cc1,7,-2,3497,9,1.5,-17,-18
Cc1occc1C(=O)NNS(=O)(=O)c1ccc([N+](=O)[O-])cc1,6,1,5148,9,4.3,-1,-18
O=C(NCc1ccc2c(c1)OCO2)C1CCCN1S(=O)(=O)c1ccc(F)cc1 (stereo not drawn),13,2,4703,7,3.8,-10,-7
COC(=O)CNC(=O)CSc1nnc(C)c(=O)[nH]1,0,3,2453,4,3.4,4,-8
Cc1cccc(Nc2nc(C)nc3c2oc2ccccc23)c1,12,0,3628,-2,25,10,-12
COc1cc(OC)c(C2N(c3ccc(Cl)cc3)C(=O)C3CCCN32)cc1OC (stereo not drawn),x,x,7750,-5,-4.8,-12,-4
O=C(CCS(=O)(=O)c1ccccc1)N1CCN(c2cccc(C(F)(F)F)c2)CC1,x,x,6273,x,x,-1,-8
Cc1ccc(N2C(=O)NC(NS(=O)(=O)c3ccc(C)cc3)(C(F)(F)F)C2=O)cc1 (stereo not drawn),11,-2,6478,6,1.7,1,-20
CCCC(=O)NC(c1ccccc1)c1ccc2cccnc2c1O (stereo not drawn),x,x,3338,x,x,26,19
COC(=O)C1CCN(C(c2ccc(OC)c(OC)c2)c2sc3nc(C)nn3c2O)CC1 (stereo not drawn),2,12,6373,-6,-9.0,0,-12
O=C(/C=N/O)Nc1ccccc1,x,x,3187,x,x,-7,0
CCOc1cc2c(cc1OCC)-n1cccc1C(c1ccccc1O)NC2 (stereo not drawn),4,6,4386,-7,5.4,-8,-11
Cc1ccc(C)c(N2N=C(C(=O)Nc3ccc(S(=O)(=O)N4CCCC4)cc3)CCC2=O)c1,5,-7,4462,-5,2.8,-12,x
Cc1ccc(C(=O)N/C(=C\c2ccccc2)C(=O)NCc2cccnc2)cc1,0,10,3935,2,4.6,-7,-29
Cc1ccc(C)c(NC(=O)CCc2ccc(S(=O)(=O)NC3CCCCC3)cc2)c1,x,x,2135,-2,-5.9,5,-16

# Filtered by structure: those above with four or more nitrogen atoms.
SMILES,Mtb hypoxia inh,Mtb hypoxia inh growth,Autofluor counter,Sa ugtP lethal,RN4220 kill,BJeLR viability,PrP UTR inh
Cn1c(=O)c2c(SCc3c(F)cccc3Cl)nc(CC(C)(C)C)nc2n(C)c1=O,5,10,5739,53,-13,-2,-21
Cc1ccccc1OCC(=O)N(Cc1ccco1)c1c(N)n(Cc2ccccc2)c(=O)[nH]c1=O,0,-4,5518,1,0.9,x,-8
O=C(CC1C(=O)NCCN1C(=O)Nc1ccccc1)Nc1ccc2c(c1)OCO2 (stereo not drawn),12,2,2326,-2,6.1,-5,-21
Cn1c(=O)c2[nH]c(CCCCc3nc4ccccc4[nH]3)nc2n(C)c1=O,2,17,3537,0,3.4,x,-10
O=C(NCC1CC1)c1ccc(Nc2nc3ccc(Br)cc3[nH]2)cc1,-4,16,4026,-17,-4.2,2,-4
COc1cccc(NC(=O)c2nn(C)c(C(=O)Nc3cccc(OC)c3)c2[N+](=O)[O-])c1,4,3,3992,6,0.1,-3,-44
COc1ccccc1/C=N/NC(=O)c1nnn(-c2nonc2N)c1CSC1=NCCS1,x,x,1790,x,x,-20,-7
COCc1nnc(NC(=O)c2ccc(S(=O)(=O)N(C)Cc3ccccc3)cc2)o1,7,-2,5337,0,15,-14,-7
CCSc1nnc(NC(=O)c2cnccn2)s1,6,6,x,-1,5.1,-12,x
CC1(c2nnc(-c3ccc(F)cc3)o2)CC(c2cccnc2)=NO1 (stereo not drawn),12,18,4192,4,2.9,8,-7
CCOC(=O)N1CCC(Nc2nc(OC)nc(OC)n2)CC1,6,17,22300*,1,1.2,-3,17
Cn1cc(CN2CCC(C(=O)Nc3cccc(-c4cscn4)c3)CC2)cn1,-1,0,6223,2,3.5,-1,-14
CCN(CC(=O)Nc1ccccc1C(F)(F)F)C(=O)c1cc(-c2ccccc2)nn1-c1ccccc1,7,4,5563,23,-3.4,1,-9
COC(=O)CNC(=O)CSc1nnc(C)c(=O)[nH]1,0,3,2453,4,3.4,4,-8
COC(=O)C1CCN(C(c2ccc(OC)c(OC)c2)c2sc3nc(C)nn3c2O)CC1 (stereo not drawn),2,12,6373,-6,-9.0,0,-12
Cc1ccc(C)c(N2N=C(C(=O)Nc3ccc(S(=O)(=O)N4CCCC4)cc3)CCC2=O)c1,5,-7,4462,-5,2.8,-12,x
